GLA inh pH 4.5: inhibitors of human alpha-galactosidase A at pH 4.5; purified enzyme, 4-MU-alpha-Gal fluorescence, pH 4.5; activity change, negative = inhibition, % at 105 µM; 230,000 tested, under 10 active; P06280; AID 1467; inconclusive = small, poorly fitted or top-dose-only inhibition, or a rising curve; inactive = flat fitted curve, though single readings scatter; no compound was filed as active;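 further: 0% = full activity with enzyme and -100% = basal without enzyme; dose as in the result columns while the protocol names 77 µM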
Target sequence (P06280 whole entry, looked up): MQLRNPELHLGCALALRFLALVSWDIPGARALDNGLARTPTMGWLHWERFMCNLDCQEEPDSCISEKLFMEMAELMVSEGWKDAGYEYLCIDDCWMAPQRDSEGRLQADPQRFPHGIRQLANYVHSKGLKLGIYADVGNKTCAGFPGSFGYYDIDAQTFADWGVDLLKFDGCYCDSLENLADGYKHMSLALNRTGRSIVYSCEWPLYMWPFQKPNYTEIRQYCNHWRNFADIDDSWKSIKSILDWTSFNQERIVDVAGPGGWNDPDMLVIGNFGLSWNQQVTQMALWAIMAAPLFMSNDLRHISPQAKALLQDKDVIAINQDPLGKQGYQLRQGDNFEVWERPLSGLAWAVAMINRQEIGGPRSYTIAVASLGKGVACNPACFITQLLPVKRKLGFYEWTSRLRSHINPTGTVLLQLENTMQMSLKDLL
Rango release inh: inhibitors of RanGTP-induced Rango-importin beta complex dissociation. O95149+P62826. Biochemical FRET Rango-importin beta, RanGTP-induced dissociation. Potency, µM (doses to about 46.1 µM), without a hit: top-dose activity change, negative = inhibition. hit rate 0.071% among 340,000. AID 540253; active means falling FRET ratio curve, often poorly fitted, with flat reads before Ran was added; inconclusive means other falling curves, or compound fluorescence or quenching; inactive means flat or rising ratio curve;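 further: potency means the concentration at half of the fitted maximal effect; % of control where 0% means no effect; nearly all actives have a fitted effect of over 45% in size; -100% = wells without RanGTP and RCC1; the record marks most hits as doubtful in a second field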
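Recombinant Rango FRET biosensor (EYFP–snurportin 1 IBB–cerulean CFP10) at 0.1 uM premixed with 0.25 uM importin beta in PBS, 1 mM DTT, 0.02% Tween-20, 0.1% BSA. Compound added 5 min; RanGTP-RCC1 (0.6 uM Ran, 2 mM GTP, 0.2 uM RCC1) then triggers release, read at 45 min.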
miR-21 FLuc: raises the signal of a miR-21 reporter; HeLa miR-21 FLuc reporter, luciferase, 48 h; 340,000 tested, under 10 active; Potency, µM (doses to about 38.3 µM), for inactives: top-dose reporter change, positive = more light; AID 2288; active = well fitted rising curve with a large enough effect; inconclusive = small, poorly fitted or top-dose-only effect; inactive = no such curve, though single readings can be large or run the other way;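 further: % of control where 0% means no effect; miR-21 action dims this reporter so a rising signal means less miR-21 action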
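HeLa cells stably expressing CMV-driven firefly luciferase with a downstream miR-21 binding sequence, endogenously expressing miR-21, were treated with titrations (up to about 40uM final) for 48 hours at 37 degree Celsius. Luciferase luminescence was read after lysis.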
Rango-impB inh: inhibitors of Rango-importin beta complex formation; Potency, µM (titrated, usually from 92.2 µM), for inactives: at the highest dose inhibition of complex formation; AID 540263; Rango CFP/YFP FRET sensor + importin beta, 45 min; hit rate 0.031% among 340,000; Q14974; active = rising FRET ratio curve, often small or poorly fitted; inconclusive = mostly compound fluorescence or quenching in the first reads; inactive = flat curves in all reads;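 further: potency means the concentration at half of the fitted maximal effect; 0% = DMSO wells and 100% = buffer wells lacking importin beta; nearly all actives have a fitted effect of over 15% in size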
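Inhibition scored from the CFP 486 nm/YFP 530 nm FRET ratio 45 min after adding 0.125 microM importin beta to 50 nM Rango biosensor preincubated 5 min with compound (room temperature, PBS with DTT, Tween-20, BSA). No-importin wells as positive control.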
Numbers without * were called inactive; ? = inconclusive; . = no result given; & = joins results of further samples.

SMILES	GLA inh pH 4.5	Rango release inh	miR-21 FLuc	Rango-impB inh
CCN(c1cccc(C)c1)S(=O)(=O)c1ccc2[nH]c(=O)c(=O)[nH]c2c1	?	-4%	-3%	0.9%
CN1CCn2c1nc(N1CCOCC1)nc2=O	2	-17%	-1%	2.9%
CCCCn1c(N)c(N(CC(C)C)C(=O)CCNC(=O)c2ccc(Br)cc2)c(=O)[nH]c1=O	.	-2%	.	0.2%
N#C/C(=C/c1ccco1)C(N)=S	-5	-6%	1%	-0.8%
O=C(CNCc1ccc(F)cc1)Nc1ccc(S(=O)(=O)N2CCOCC2)cc1	.	0%	-4%	-2.5%
COc1ccc(/C=C(/NC(=O)/C=C/c2ccccc2)C(=O)N2CCOCC2)cc1	-22	-1%	-2%	-3.4%
Cn1cc(CN2CCC(Oc3ccc(C(=O)N4CCCC4)cc3)CC2)cn1	.	32%	4%	-0.1%
CCN1CCCC(OC(=O)Nc2ccccc2)C1 (stereo unspecified)	7	0%	-16%	-1.2%
O=C(CCCCCCC(=O)c1ccccc1)c1ccccc1	-16	0%	-2%	?
Cc1cc(C)cc(NS(=O)(=O)c2ccc3c(c2)C(C)(C)C(=O)N3C)c1	.	11%	0%	4.6%
Cc1ccc(-n2c(C)cc(/C=N/Nc3ccc([N+](=O)[O-])cn3)c2C)c(C)c1	-2	?	-4%	?
CCOc1ccc(/C=C2/Sc3ccc(C(=O)N4CCOCC4)cc3N(C)C2=O)cc1OC	.	-9%	13%	3.9%
CC(C)Sc1nc2c(c(=O)n(C)c(=O)n2C)n1C	-4	2%	-3%	-2.7%
CCOc1ccc(Nc2nc(N3CCCC3)nc(N3CCN(c4ccc(OC)cc4)CC3)n2)cc1	-3	14%	0%	-3.3%
Cn1c(SCC(=O)c2ccccc2)nnc1-c1ccncc1	7	-25%	-4%	5.5%

In the list so far, 2 contain an aryl thioether with sulfur outside any ring.
SMILES	GLA inh pH 4.5	Rango release inh	miR-21 FLuc	Rango-impB inh
CC(C)Sc1nc2c(c(=O)n(C)c(=O)n2C)n1C	-4	2%	-3%	-2.7%
Cn1c(SCC(=O)c2ccccc2)nnc1-c1ccncc1	7	-25%	-4%	5.5%

The listing picks up with the 2 entries that preceded the break.
SMILES	GLA inh pH 4.5	Rango release inh	miR-21 FLuc	Rango-impB inh
CCOc1ccc(Nc2nc(N3CCCC3)nc(N3CCN(c4ccc(OC)cc4)CC3)n2)cc1	-3	14%	0%	-3.3%
Cn1c(SCC(=O)c2ccccc2)nnc1-c1ccncc1	7	-25%	-4%	5.5%
CCOC(=O)N1CCN(S(=O)(=O)c2cccc3cccnc23)CC1	7	-1%	-5%	-0.1%
CC1CCCCC12NC(=O)N(CC(=O)NCc1ccc3c(c1)OCO3)C2=O (stereo unspecified)	1	-4%	0%	?
O=C(COc1ccccc1[N+](=O)[O-])N/N=C/c1ccc[nH]1	4	1%	-26%	-4.1%
CCOC(=O)C1CCN(C(=O)CCc2c(C)nc3ncnn3c2C)CC1	8	2%	3%	3.4%
Cc1ccc2c(c1)c1ncn(CCC3=CCCCC3)c(=O)c1n2C	-2	1%	-1%	-2.1%
COc1cc(OC)cc(C(=O)NCC(=O)OCC(=O)Nc2ncc(Cl)cc2Cl)c1	2	-8%	2%	-4.0%
CC(C)N1C(=O)CCC1C(=O)NCc1ccc(F)cc1Cl (stereo unspecified)	.	-3%	3%	0.5%
CC(C)NC(=O)NC(=O)CSc1ncccn1	-2	-2%	-1%	-0.8%
CCc1nc2sc3c(Cl)ncnc3c2c2c1CCCC2	7	-9%	1%	-2.2%
CC(C)C(c1nnnn1Cc1ccco1)N1CCN(c2nc3ccccc3s2)CC1 (stereo unspecified)	-6	4%	3%	-4.4%
CCOC(=O)C(Cc1ccc(N)cc1)N1C(=O)c2ccccc2C1=O (stereo unspecified)	.	15%	4%	0.9%
O=C(c1cccs1)N1CCN(Cc2cn[nH]c2-c2ccc(F)cc2F)CC1	.	2%	5%	-4.2%
O=C(CCc1nnc(COc2ccccc2)o1)NC1(c2ccccc2)CC1	-1	-7%	-2%	-0.3%
CC(NC(=O)CNC(=O)c1ccccc1Br)c1cccs1 (stereo unspecified)	.	29%	.	-1.2%
CCn1c(=O)c2cc(C(=O)NCCN3CCOCC3)sc2c2ccccc21	1	7%	-2%	0.9%

In a second layout: entries from further up.
O=C(COc1ccccc1[N+](=O)[O-])N/N=C/c1ccc[nH]1
  GLA inh pH 4.5: 4; Rango release inh: 1%; miR-21 FLuc: -26%; Rango-impB inh: -4.1%
CC1CCCCC12NC(=O)N(CC(=O)NCc1ccc3c(c1)OCO3)C2=O (stereo unspecified)
  GLA inh pH 4.5: 1; Rango release inh: -4%; miR-21 FLuc: 0%; Rango-impB inh: ?

Going on with the list:
SMILES	GLA inh pH 4.5	Rango release inh	miR-21 FLuc	Rango-impB inh
Cc1ccc(N(CCC(=O)O)S(=O)(=O)c2cccc(C(F)(F)F)c2)cc1	1	12%	-11%	-4.3%
Cn1c(=O)c2c(=O)cc(NNC(=O)C(C)(C)C)[nH]c2n(C)c1=O	-4	2%	0%	-0.8%
C=CCn1c(N)cc(=O)nc1SC(C)C(=O)Nc1cccc2ccccc12 (stereo unspecified)	-3	-8%	-3%	2.5%
Cc1ccc(NC(=O)CCN2C(=O)NC3(CCCC3)C2=O)c(C)c1	.	-5%	.	1.7%
COc1cccc(-c2nc(-c3ccc(NC(=O)c4cccs4)cc3)no2)c1	5	-3%	-44%	-3.7%
Cc1ccc(OCCOCCNC(C)(C)C)c([N+](=O)[O-])c1	-1	-5%	0%	-1.9%
Cc1cccc(OCc2nnc(SC(C)C(=O)Nc3ccc(N4CCOCC4)cc3)o2)c1 (stereo unspecified)	.	-6%	.	1.1%
NC(N)=N/N=C/c1ccc(OCc2ccc(Cl)cc2)cc1	6	24%	?	1.8%
O=C(Nc1ccc(Br)c(Br)c1)C1CCCO1 (stereo unspecified)	.	-2%	.	-2.2%
COc1ccc(C(C)=O)cc1CSC(=N)N	-5	5%	0%	0.4%
O=C(N/N=C/c1c(O)n(Cc2ccccc2)c(=O)c2ccccc12)c1cccnc1	-12	?	7%	?
CCCCNC(=O)CCc1c(C)nc2c(c(C)nn2-c2ccccc2)c1C	.	-6%	0%&0%	-0.1%
CC1CCCCN1S(=O)(=O)c1ccc(NC(=O)c2cccs2)cc1 (stereo unspecified)	0	12%	0%	-15%
O=C(CN1C(=O)NC2(CCCC2)C1=O)Nc1ccc(S(=O)(=O)N2CCOCC2)cc1	-4	-11%	-5%	0.3%
CCC(=O)Nc1ccc(N2CCN(Cc3ccccc3F)CC2)cc1	-2	-3%	-1%	0.9%
COc1cccc(C(=O)NC(=S)Nn2cnnc2)c1OC	1	-1%	-3%	-0.5%
CCn1c(=O)c(C(=O)Nc2cccnc2)c(O)c2ccccc21	.	11%	.	1.2%
Cc1cc(NC(=O)CSCC(=O)OCC(=O)c2cccc(Br)c2)no1	.	-13%	.	6.6%
CN1C(=O)c2ccc(C(=O)NC3CCCCC3)cc2C1=O	5	1%	-7%	-0.9%
Cc1ccc(/C=C2/SC(=S)N(CCC(=O)NCCCN3CCOCC3)C2=O)cc1	.	-14%	1%	1.7%
COc1cc(Cl)ccc1OCc1cc(C(=O)NC2CCc3ccccc32)no1 (stereo unspecified)	.	8%	-2%	-2.6%
N#C/C(=C\c1ccco1)c1nc2ccccc2s1	-11	?	-56%	?
COc1ccccc1NS(=O)(=O)c1ccc2oc(SCc3ccc(C#N)cc3)nc2c1	-4	0%	?	-2.8%
COc1ccccc1CC(=O)Nc1ccc(S(=O)(=O)N2CCCCC2)cc1	.	-9%	1%	-2.2%
CCOc1ncccc1C(=O)Nc1nc(C(C)(C)C)cs1	1	15%	-15%	4.4%
c1cc(-c2cn(C[C@H]3CC[C@@H]([C@@H]4CC[C@H](Cn5cc(-c6ccsc6)nn5)O4)O3)nn2)cs1	.	1%	6%	-1.2%
COc1ccc(N(CC(=O)NCc2ccc(F)cc2)C(=O)Cn2nnc(-c3ccc(C)o3)n2)cc1OC	.	-7%	-2%	-0.1%
CNc1nc(-c2c[nH]c3ccccc23)cs1	4	-6%	3%	-1.9%
CN(Cc1ccccc1)C(=O)Nc1ccc(Cl)cc1	.	-14%	.	1.3%
COc1ccc(NC(=O)CN2C(=O)NC3(CC(C)CC(C)(C)C3)C2=O)cc1S(=O)(=O)N1CCCCC1 (stereo unspecified)	.	16%	.	-2.2%
CCCNC(=O)N1CCCC(C(=O)c2cccc(Cl)c2)C1 (stereo unspecified)	-26	35%	0%	1.3%
Cc1nnc(SCC(=O)NC2CCS(=O)(=O)C2)n1-c1ccccc1 (stereo unspecified)	0	8%	1%	-1.0%
COC(=O)COc1ccc2oc(=O)cc(-c3cc4cccc(OC)c4o3)c2c1	.	-11%	2%	-4.2%
c1cnc2nc(CSc3ncn[nH]3)cn2c1	0	-7%	-2%	-0.2%
O=C(COc1ncnc2scc(-c3ccccc3)c12)NC1CCCc2ccccc21 (stereo unspecified)	-15	-11%	8%	-2.0%
Cc1nnc(SCC(=O)NC(=O)NCc2ccco2)s1	5	-13%	0%	0.5%
O=S(=O)(Nc1cc(S(=O)(=O)N2CCOCC2)ccc1N1CCCC1)c1cccs1	0	2%	-6%	-0.6%
Cc1nccn1CCCN1C(=O)CNC1=S	5	-13%	0%	-0.9%
O=C(COC(=O)c1ccc2c(c1)OCO2)Nc1nc(-c2ccccc2)cs1	9	-5%	-4%	1.9%
O=C(CNc1cccc(Cl)c1)c1ccc(Br)cc1	.	-12%	-1%	2.3%
CC1CCCCN1C(=O)CSc1nc2cc3c(cc2c(=O)n1Cc1ccc2c(c1)OCO2)OCO3 (stereo unspecified)	-10	-9%	-3%	-1.9%
CCSC(=Nc1ccccc1)N1CCOCC1	.	-2%	.	1.3%
CCCCCC#CCC#CCC#CCC#CCCCC(=O)O	1	.	-15%	.
COc1ccc(C(C)(C)C)cc1NC(=O)CCc1c(C)noc1C	.	-2%	.	-0.2%
COC(Cc1n[nH]c(=S)n1-c1ccc(Cl)cc1)OC	6	4%	-1%	0.9%
C/C(=N\Nc1cccc(Cl)c1)c1ccc(-n2ccnc2)cc1	-1	-3%	-12%	0.2%
CCCn1c(CNC(=O)c2ccccc2)nc2ccccc21	-5	1%	0%	0.0%
O=C(C1CCC1)N1CCc2cc(S(=O)(=O)NCc3ccco3)ccc21	-22	-4%	-9%	-0.1%
CN1CCN(c2ccccc2/C=C2/C(=O)Nc3ccccc32)CC1	.	-11%	18%	0.3%
O=C(CCc1ccccc1)Nc1cccc(NC(=O)CCc2ccccc2)c1	-1	1%	-5%	3.5%
N/C(=N\NS(=O)(=O)c1ccccc1Cl)c1ccccn1	.	?	.	-0.7%
CCOc1ccc(C(=O)CCN2CCCCC2)cc1	-7	3%	0%	-1.1%
CC1CCN(S(=O)(=O)c2ccc(NC(=O)Cc3ccccc3)cc2)CC1	2	4%	6%	-2.1%
CC[C@H](C)[C@H]1CNC(=S)N1CC1CCN(CC2CCC(C)CC2)CC1 (stereo partly specified)	.	3%	.	?
COc1ccc(C2/C=C\CN(C(=O)OCC3c4ccccc4-c4ccccc43)CC(=O)N2Cc2cccc(F)c2)cc1 (stereo unspecified)	-7	?	.	-5.5%
COc1ccc(CCNC(=O)Cn2cnc3c2c(=O)n(C)c(=O)n3C)cc1OC	5	21%	-2%	2.0%
Cc1ccc2cc(C(c3nnnn3C(C)(C)C)N3CCCC3)c(=O)[nH]c2c1C (stereo unspecified)	2	.	-14%	.
CC(=O)Nc1cc(C(=O)c2ccccc2)ccc1N1CCOCC1	6	5%	0%	-3.5%
COc1ccc(Nc2cc(Cl)nc(N)n2)cc1OC	13	1%	-25%	-1.9%
O=C(/C=C/c1cccc([N+](=O)[O-])c1)NC(=S)Nc1ccccc1C(=O)O	-4	.	?	.
O=C(O)c1ccc([N+](=O)[O-])c2c1C(=O)c1ccccc1C2=O	.	5%	.	0.8%
CCc1nc(=O)c(-c2ccccc2)c(C)n1-c1ccccc1	.	-9%	-1%	-6.7%
CCOC(=O)Cc1csc(NC(NC(=O)OCC)(C(F)(F)F)C(F)(F)F)n1	5	13%	6%	2.6%

Bioassay records as filed in PubChem BioAssay.

These rows are one share of the data (hit frequency here may not be typical).
